TRPV1 PAM: enhances activation of the human vanilloid receptor TRPV1; Q8NER1; potentiation, % at 8.33 µM; 320,000 tested, 0.02% active; TRPV1-expressing cells, Fluo-8 calcium influx, capsaicin EC20 potentiation; host cell line not named in the record; control for the full effect not named in the record; active means potentiation above 80%; inconclusive means 30% to 80%; inactive means below 30%; note: 0% is about no effect
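Fluo-8 calcium influx in TRPV1-expressing cells, kinetic read (ex 480/em 520 nm). Compound added and read 3 min for agonist activity, followed by capsaicin at EC20 final and 2 min further read for enhancement.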
D2 ag: human D2 receptor agonism in beta-arrestin assay | activation, % (no concentration beside the values) | DiscoveRx PathHunter D2 beta-arrestin, luminescence, 90 min; 100% = 57 uM dopamine signal | 360,000 tested, 0.084% active | AID 624465 | P14416; in the data active = activation above about 40%; inconclusive = about 15% to 40%; inactive = below about 15%; note: compound concentration not given in the record; the text of the record calls up to 30% inactive
Target sequence (P14416 whole entry, looked up): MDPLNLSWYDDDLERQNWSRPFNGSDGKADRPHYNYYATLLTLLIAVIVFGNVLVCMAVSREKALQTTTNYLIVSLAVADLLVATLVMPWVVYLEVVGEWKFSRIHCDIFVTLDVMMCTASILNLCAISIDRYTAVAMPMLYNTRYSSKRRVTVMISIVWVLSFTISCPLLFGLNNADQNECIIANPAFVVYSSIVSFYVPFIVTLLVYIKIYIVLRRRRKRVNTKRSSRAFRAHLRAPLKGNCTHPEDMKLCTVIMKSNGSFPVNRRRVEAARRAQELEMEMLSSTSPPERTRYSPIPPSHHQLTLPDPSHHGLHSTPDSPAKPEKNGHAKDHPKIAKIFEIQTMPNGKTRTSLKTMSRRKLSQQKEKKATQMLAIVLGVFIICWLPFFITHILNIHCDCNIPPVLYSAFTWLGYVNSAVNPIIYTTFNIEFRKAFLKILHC
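DiscoveRx PathHunter D2 beta-arrestin cells (2,100/well) attached overnight, then compound-stimulated 90 min at 37 C in HBSS/10 mM HEPES/0.1% Tween-20 buffer; beta-galactosidase complementation read by luminescence after 1 h at ambient temperature. Dopamine 57 uM final (EC100) as control.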
Sfp PPTase inh: Sfp phosphopantetheinyl transferase inhibition; Biochemical Sfp PPTase activity, qHTS; Potency, µM, inactives show max response, negative = inhibition, hits mostly inhibitors; 310,000 tested, 3.5% active; active = well fitted inhibition curve with a large enough effect; inconclusive = small, poorly fitted or top-dose-only effect, or another doubt; inactive = no such curve, though single readings can be large or run the other way;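 note: the enzyme is Sfp with the accession as filed and its product quenches rhodamine fluorescence; potency is the fitted concentration of half-maximal effect; 0% = enzyme reaction without inhibitor and -100% = no enzyme wells; top concentration of the series not given in the record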
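With Hepes-Na pH 7.6 buffer containing 10 mM MgCl2, Sfp (15 nM) modified BHQ-2-YbbR (12.5 uM) using rhodamine-CoA (5 uM). Two reads 30 minutes apart at 525/598 nm yielded each well's rate.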
CtBP-E1A inh: blocks the CtBP interaction with E1A; AlphaScreen GST-E1A/His-CtBP binding, 1536-well; hits give low values; control for the full effect not named in the record; activity change, % (concentration not given with the values); 340,000 tested, 0.49% active; in the data active means activity change below about -65%; inconclusive means about -30% to -65%; inactive means above about -30%; note: % is set by controls: 0 for no effect and ±100 for the full control effect
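Protein mix (5X: 125 nM each GST-E1A, His-CtBP) was incubated with pinned compound 2 h at 37 deg C in dark, in 50 mM Tris pH 8.0 buffer with 300 mM NaCl. Glutathione donor and nickel acceptor beads followed; AlphaScreen signal read after 1 h.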
D2 potentiator: human D2 receptor positive allosteric modulation | DiscoveRx D2 beta-arrestin cells, luminescence, 90 min; 100% = 57 uM dopamine signal | AID 624464 | 360,000 tested, 0.23% active | potentiation, % (concentration not given with the values) | P14416; active = potentiation of 50% or more; inconclusive = 30% to 50%; inactive = 30% or less;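 note: compound concentration not given in the record; tested on top of an EC20 dose of dopamine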
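D2 cells co-treated with compound plus 50 nM dopamine (EC20) for 90 min at 37 deg C to detect potentiation. Beta-arrestin recruitment was read as enzyme-fragment luminescence after 1 h at ambient temperature. Full response was set by 57 uM dopamine.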
Six1-Eya2 blk: Six1/Eya2 interaction inhibition | Q15475+O00167 | AlphaScreen GST-Six1/His-Eya2 binding, biochemical; hits give low values; control for the full effect not named in the record | activity change, % (concentration not given with the values) | 360,000 tested, 0.56% active | AID 651725; in the data active = activity change below about -65%; inconclusive = about -30% to -65%; inactive = above about -30%; note: % is set by controls: 0 for no effect and ±100 for the full control effect
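Six1/Eya2 binding was read as AlphaScreen signal after compounds were pinned into GST-Six1 plus His-tagged Eya2 (5X stock 250/500 nM) in pH 8.0 Tris/NaCl/TCEP buffer, beads added, then incubated 1 h, 37 C, dark.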
PINK1 modulator: changes PINK1 expression; PINK1 immunofluorescence, high-content cytometry, 24 h; Potency, µM (series often up to 76.6 µM), for the others: at the top dose activation (PINK1 increase), hits mostly activators; 410,000 tested, 0.2% active; active = well fitted activation curve with a large enough effect; inconclusive = small, poorly fitted or top-dose-only effect; inactive = flat fitted curve, though single readings scatter; cell line not stated here;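 note: potency is the fitted concentration of half-maximal effect; % of control where 0% means no effect; nearly all actives have a fitted effect of over 65% in size; a mitochondrial uncoupler was the plate control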
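Cells are seeded, rested 12 hours, then given compound at five concentrations or DMSO for 24 hours. After fixation, blocking and antibody staining, PINK1 amount and mitochondrial localization are scored; CCCP serves as control.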
* marks the source's active call; other numbers are inactive results; ? = inconclusive; . = no result given; [ ] = dose if it differs, or a comment.

SMILES | TRPV1 PAM | D2 ag | Sfp PPTase inh | CtBP-E1A inh | D2 potentiator | Six1-Eya2 blk | PINK1 modulator
Cc1noc(C)c1C(=O)OCC(=O)NCCc1ccccc1 | 6 | -3.4 | . | 2 | -9 | 0 | -0.5%
CC(C)CN1C(=O)c2ccc(C(=O)Nc3ccncc3)cc2C1=O | -14 | -0.1 | 14% | 7 | 4 | -1 | 0.6%[38.3 µM]
COc1ccc(C2CC2/C(C)=N/OC(=O)C2CC2)cc1 (stereo not given) | 6 | -0.2 | 12% | -18 | 7 | 11 | -3.3%
CCc1ccc(NC(=O)CSc2nc3ccccc3nc2N2CCCC2)cc1 | 2 | -6.7 | 18% | 66 | -1 | 24 | 1.4%
Cn1c(CNC(=O)c2ccc3c(c2)OCO3)nnc1SCC(=O)Nc1ccc(F)cc1 | 0 | -1.0 | 18% | -8 | -11 | -3 | 1.1%
CC(C)C(C(=O)NC1CCCCC1)N(CC1CCCO1)C(=O)CNS(=O)(=O)c1ccc(F)cc1 (stereo not given) | -11 | -4.1 | -6% | -1 | -5 | 1 | -0.9%
Cc1cn([C@H]2C[C@H](O)[C@@H](CNC(=O)CNC(=O)CN)O2)c(=O)[nH]c1=O | . | -4.6 | . | 7 | 6 | 8 | 1.4%
CC(=O)N1c2ccc(S(=O)(=O)N3CCC(C(=O)NCc4ccccc4Cl)CC3)cc2CC1C (stereo not given) | 0 | -1.9 | 12% | . | 2 | 1 | 2.2%
Cc1cc(C)cc(CC(=O)N2CCC2(C)C(=O)NS(=O)(=O)c2ccc(Br)cc2)c1 (stereo not given) | . | 1.4 | . | -2 | 3 | 2 | 3.0%
COc1ccc(N2CCN(C(=O)COC(=O)CCOc3cc(C)ccc3C)CC2)cc1 | -9 | -5.8 | . | 4 | -25 | -7 | 1.0%
CCOc1ccc(S(=O)(=O)N/N=C2/CCCC(=O)C2)cc1 | -1 | -0.8 | -7% | -3 | -7 | 8 | 1.2%
COc1ccc(CCN(C)C(=O)CNC(=O)Cc2cccc3ccccc23)cc1OC | ? | -2.5 | 4% | -5 | -2 | 0 | -0.4%
Cc1c(C(=O)N2CCN(Cc3cccs3)CC2)oc2ccccc12 | -6 | -4.2 | . | -8 | -4 | -1 | 0.6%
O=C(Nc1ccc([N+](=O)[O-])cc1)c1ccccc1F | -17 | -3.7 | 16% | 16 | -4 | 0 | 0.8%
CC(C)(C)OC(=O)N1C(=O)[C@](OC(=O)c2ccccc2)(c2ccc(F)cc2)c2ccccc21 | . | . | . | 0 | . | -13 | 4.4%

The list goes on; it opens with the 6 that closed the last part.
SMILES | TRPV1 PAM | D2 ag | Sfp PPTase inh | CtBP-E1A inh | D2 potentiator | Six1-Eya2 blk | PINK1 modulator
COc1ccc(N2CCN(C(=O)COC(=O)CCOc3cc(C)ccc3C)CC2)cc1 | -9 | -5.8 | . | 4 | -25 | -7 | 1.0%
CCOc1ccc(S(=O)(=O)N/N=C2/CCCC(=O)C2)cc1 | -1 | -0.8 | -7% | -3 | -7 | 8 | 1.2%
COc1ccc(CCN(C)C(=O)CNC(=O)Cc2cccc3ccccc23)cc1OC | ? | -2.5 | 4% | -5 | -2 | 0 | -0.4%
Cc1c(C(=O)N2CCN(Cc3cccs3)CC2)oc2ccccc12 | -6 | -4.2 | . | -8 | -4 | -1 | 0.6%
O=C(Nc1ccc([N+](=O)[O-])cc1)c1ccccc1F | -17 | -3.7 | 16% | 16 | -4 | 0 | 0.8%
CC(C)(C)OC(=O)N1C(=O)[C@](OC(=O)c2ccccc2)(c2ccc(F)cc2)c2ccccc21 | . | . | . | 0 | . | -13 | 4.4%
CCOc1cc(C(=O)Nc2ccc(N3CCN(S(C)(=O)=O)CC3)cc2)cc(OCC)c1OCC | -1 | 2.0 | 10% | 10 | 3 | 0 | -0.5%
Cc1ccccc1OCC(=O)N(Cc1cccs1)C1CCS(=O)(=O)C1 (stereo not given) | 5 | 0.9 | 2% | 0 | -8 | 8 | -2.7%
N=c1oc2ccccc2cc1C(=O)Nc1cccc(F)c1 | 3 | 1.6 | 8% | 0 | -12 | 4 | 1.4%
CC(C)OCCCN1CN(S(=O)(=O)c2cccs2)c2nc3ccccc3nc21 | 5 | -1.8 | -5% | 2 | -7 | 4 | 0.4%
CCc1nnc(N/N=C/c2ccc(N3CCC(C)CC3)c([N+](=O)[O-])c2)n1N | -18 | ? | 71µM* | ? | 19 | -26 | 11%
Cc1cc(C(=O)CN2C(=O)NC3(CCCCC3C)C2=O)c(C)n1Cc1cccs1 (stereo not given) | 2 | -2.9 | ? | 2 | -14 | -1 | 3.6%
CC(C)Cc1nc2c(nnn2Cc2ccccc2F)c(=O)[nH]1 | -2 | -0.9 | -12% | -4 | -9 | -8 | 0.3%
CCC1(CC)C(=O)NC(=S)N=C1N | . | -1.7 | . | 2 | -1 | 1 | 1.8%
C=CCn1c(SCC(=O)c2ccc(F)cc2)nnc1-c1ccc2c(c1)OCO2 | -10 | -0.7 | -4% | -1 | -3 | 6 | 0.8%
CCOc1ncccc1C(=O)Nc1ccc(F)cc1 | 9 | -1.4 | 12% | -10 | -2 | -4 | 0.1%
CC1(C)CC(=O)C2=C(C1)OC(N)=C(C#N)C2CCc1ccccc1 (stereo not given) | -10 | -1.4 | 12% | -11 | -29 | 7 | -2.0%
CC(C)[C@H](NC(=O)N1CC(=O)Nc2ccccc21)C(=O)N[C@@H](Cc1c[nH]c2ccccc12)C(=O)O | -2 | -4.1 | 6% | 0 | -25 | 3 | 1.0%
Cc1c(OCC(=O)NC(Cc2ccc(Cl)cc2)C(=O)O)ccc2c1oc(=O)c1ccccc12 (stereo not given) | -17 | -4.2 | 2% | -1 | -19 | -13 | -0.3%
COc1ccc(CCNC(=O)NC2CCCCC2)cc1OC | -5 | 2.7 | 18% | 0 | -3 | 3 | -4.8%[38.3 µM]
COc1ccc(-c2noc(CCC(=O)N3CCN(c4ccc(C(F)(F)F)cc4)CC3)n2)cc1 | . | -1.2 | . | -24 | . | -1 | 4.9%
COc1ccc(CC2(CO)CCN(Cc3cnn(-c4ccccc4OC)c3)CC2)cc1 | 4 | -4.6 | 16% | -8 | -24 | -21 | 1.3%
CCCNC(=O)c1ccc(N2CCC3(CC2)CC(c2cccc(Br)c2)=NO3)c(N)c1 | 14 | 0.5 | . | -8 | -7 | -19 | -0.3%
Cc1coc2cc3oc(=O)c(CCC(=O)NCc4ccccn4)c(C)c3cc12 | -12 | -5.6 | 12% | 1 | -37 | 0 | -0.5%
O=C(NC1CCN(c2ncccn2)CC1)c1c(F)cccc1F | -10 | -0.7 | 10% | 7 | -4 | 3 | -0.5%
CCn1cc(CCCC(=O)NCc2cccc(OC)c2)c2ccccc21 | -1 | -11 | -5% | 0 | -4 | -14 | 1.5%
C=CCOc1nc(N2CCCC2)nc(N2CCCC2)n1 | 6 | -0.7 | 5% | 3 | -12 | 3 | -1.6%
O=C(Cc1ccccc1)N1CCN(S(=O)(=O)c2ccc([N+](=O)[O-])cc2)CC1 | -4 | 5.8 | 25% | -4 | 13 | 0 | -0.5%
COc1cccc(C(=O)CSc2nnc(-c3cccs3)o2)c1 | 5 | -2.5 | -10% | 12 | -5 | -2 | .
CN1/C(=C\C(=O)c2oc3ccccc3c2N)C(C)(C)c2ccccc21 | -9 | 3.5 | 7% | 15 | 8 | 8 | 6.0%
COc1ccc(-c2csc(NC(=O)c3ccc(C(C)(C)C)cc3)c2C(=O)O)cc1 | . | -2.4 | . | -3 | -2 | -1 | 0.6%
Cc1ccc(OC(=O)c2sc(Cl)nc2C)cc1C | 3 | -7.5 | -8% | 9 | -25 | 7 | ?
COc1ccccc1C(=O)Oc1ccc(C(C)C)cc1 | -4 | -0.4 | -6% | 4 | -21 | 24 | 23%[38.3 µM]
CCc1nc2c(OCc3ccc(F)c(F)c3)cccn2c1N(C)C(=O)c1ccc(OC)cc1 | . | -3.0 | . | ? | -15 | -7 | -1.0%
CN(Cc1cccc([N+](=O)[O-])c1)Cc1cccc2ccccc12 | -5 | -2.3 | -13% | -16 | -16 | -4 | 5.4%
CCOC(=O)C1=C(Nc2cccc(Cl)c2)OCC1=O | -7 | -0.3 | 17% | 1 | -41 | 9 | -1.5%
CCCc1[nH]nc2c1C(Cc1ccccc1)C(C#N)=C(N)O2 (stereo not given) | 6 | 1.7 | -5% | -6 | -6 | -2 | 0.8%
COC(=O)CNC(=O)Cc1c(C)n(C(=O)c2ccc(Cl)cc2)c2ccc(OC)cc12 | 5 | 2.2 | -4% | -3 | -11 | -7 | 1.9%
Cn1cccc1C(C#N)(CC#N)c1cccc(F)c1C#N (stereo not given) | -3 | 3.6 | 25% | -1 | -9 | 2 | 1.1%
CCNC(=S)Nc1ccc(Cl)c([N+](=O)[O-])c1 | -2 | -3.5 | 19% | 0 | -3 | -21 | 1.0%
CC(=O)c1c(C)[nH]c(C(=O)OCC(=O)NCCc2ccc(F)cc2)c1C | 7 | -1.4 | 12% | 1 | -23 | 3 | 2.6%
CN(Cc1c(C(=O)N/N=C/c2ccc(O)cc2)nnn1-c1nonc1N)C1CCCCC1 | -12 | 13 | 4% | . | -3 | 5 | 12%
O=c1c2ccccc2c(-c2ccccc2)nn1Cc1ccc(Cl)cc1 | -13 | -7.7 | -13% | -3 | -29 | 2 | 9.2%
CCOC(=O)c1ccc(NC(=O)c2nc[nH]c2C(=O)N(C)Cc2ccccc2)cc1 | -1 | -3.1 | 6% | . | -8 | -3 | 1.6%
CN(Cc1ccccc1)C(=O)[C@H]1CCC(=O)N1Cc1ccco1 | -6 | -6.0 | ? | 0 | -9 | 33 | -1.2%
COc1ccccc1-c1nnc2sc(COc3ccccc3)nn12 | 2 | -0.2 | 4% | 0 | -9 | -2 | ?
O=C(O)c1[nH]c2ccc(Cl)cc2c1CC(=O)N1CCN(c2ccccc2)CC1 | 4 | 4.0 | 10% | 5 | -5 | -16 | -1.5%
COc1ccc(C(=O)NC(=S)NCc2ccco2)cc1OC | 14 | -1.4 | -1% | -1 | -6 | -15 | 0.7%
COC(=O)Cc1c[nH]c2cccc(OCC(O)CN(Cc3ccccc3)C(C)C)c12 (stereo not given) | -4 | 0.6 | -11% | -12 | 0 | -15 | -3.2%
CCOc1ncccc1C(=O)Nc1ccc2c(c1)OCO2 | 0 | 0.7 | 17% | 10 | 6 | -13 | 1.2%
